FGF22 binding: shifts melting point of recombinant human FGF22 | recombinant FGF22 thermal shift, SYPRO orange fluorescence; percent of sucrose octasulfate shift, DMSO zero | calls only at 9.99 µM | actives 1.5% (n = 340,000) | Q9HCT0;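 active = melting point raised past a set limit in the mean and every replicate; three in four hits are not shown here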
Target sequence (Q9HCT0 whole entry, looked up): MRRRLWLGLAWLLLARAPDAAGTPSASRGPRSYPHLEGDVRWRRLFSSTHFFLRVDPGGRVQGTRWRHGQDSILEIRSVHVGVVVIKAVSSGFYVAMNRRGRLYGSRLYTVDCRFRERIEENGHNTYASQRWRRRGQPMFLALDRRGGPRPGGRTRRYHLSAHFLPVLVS
Beta2AR agonist: activates human beta-2 adrenergic receptor causing internalization; Am2.2-beta2AR cells, FAP receptor internalization, flow cytometry; reference of the scale not given here; response, % (no concentration beside the values); actives 0.43% (n = 340,000);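 active = response above a set limit, near 3 SD of response in nonfluorescent compounds, cut at about 42% in these data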;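 also: stock transfer was 100 nL into about 11 µL; a reference agonist was the positive control; negative values mostly stem from fluorescent compounds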
Target sequence (P07550 whole entry, looked up): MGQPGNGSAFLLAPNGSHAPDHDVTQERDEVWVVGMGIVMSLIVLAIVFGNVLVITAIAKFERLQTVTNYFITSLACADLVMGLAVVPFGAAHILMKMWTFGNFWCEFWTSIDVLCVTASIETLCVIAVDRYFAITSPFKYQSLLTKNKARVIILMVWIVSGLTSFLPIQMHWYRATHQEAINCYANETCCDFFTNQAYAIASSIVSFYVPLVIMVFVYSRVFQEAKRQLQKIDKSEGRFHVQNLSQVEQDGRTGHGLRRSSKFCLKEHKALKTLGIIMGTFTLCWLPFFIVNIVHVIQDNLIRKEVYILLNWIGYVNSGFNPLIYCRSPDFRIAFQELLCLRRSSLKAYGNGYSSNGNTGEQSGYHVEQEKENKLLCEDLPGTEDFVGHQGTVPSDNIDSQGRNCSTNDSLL
LANA-H2A inh: blocks KSHV LANA binding to histone H2A/H2B. Q9QR71. cell-free LANA-H2A/H2B peptide, fluorescence polarization. inhibition, % (test concentration not listed). actives 0.6% (n = 320,000). AID 2629; in the data active = inhibition mostly above about 10%, no sharp cut-off; inactive = mostly below about 6.7%;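 also: stock transfer was 7.5 nL into about 10 µL; 0% = median of vehicle wells and 100% = median of positive control wells; one replicate is shown; the record names a cut of 25% in any replicate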
UCH37 inh: human UCH37 deubiquitinating enzyme inhibition; Q9Y5K5; AID 588478; inhibition, % (no concentration beside the values); purified proteasome/UCH37, Ub-AMC cleavage fluorescence; actives 0.33% (n = 330,000);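 active = mean of two replicates above 20%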;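 also: 0% = compound-free wells with enzyme and 100% = wells lacking proteasome; stock transfer was 100 nL into about 20 µL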
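Material: human UCH37 enzyme supplied as purified proteasome complex. Measure: % inhibition of Ub-AMC cleavage fluorescence. Medium: pH 7.4 Tris-HCl (50 mM) with ovalbumin, ATP-MgCl2, DTT. Times: 30 min preincubation with enzyme, 25 min cleavage at room temperature. Detection: AMC fluorescence intensity at 355/460 nm.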
HNF4A DNA FP: change in binding of human HNF4 alpha to DNA; actives 0.3% (n = 360,000); activity change, % at 10 µM; HNF4a-FITC DNA binding, fluorescence polarization, 1 h; P41235; in the data active = activity change above about 30%, passing the limit was not always enough;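 also: controls were the assay level and a saturating level of protein; the project sought stronger binding though the title names inhibitors; some compounds called inactive have numbers as strong as hits; positive values seem to mean higher polarization but the record does not say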
ALR H2O2 inh: human ALR oxidase inhibition via reduced H2O2; P55789; purified ALR, DTT oxidation, H2O2 HRP-luminol luminescence; inhibition, % (no concentration beside the values); actives 3.8% (n = 290,000); AID 485317;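 active = mean and each replicate at 75% or more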;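 also: stock transfer was 7.5 nL into about 7.5 µL; 0% = neutral wells and 100% = wells with inactivated enzyme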
Target sequence (P55789 whole entry, looked up): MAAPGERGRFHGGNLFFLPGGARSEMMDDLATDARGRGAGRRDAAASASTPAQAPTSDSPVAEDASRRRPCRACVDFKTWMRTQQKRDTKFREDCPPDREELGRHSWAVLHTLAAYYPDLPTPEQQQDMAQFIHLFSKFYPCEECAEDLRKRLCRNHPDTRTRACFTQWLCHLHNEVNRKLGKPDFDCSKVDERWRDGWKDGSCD
Ecoli growth: inhibitors of Escherichia coli growth; OD600, 23 h; hits give low values; OD600 absorbance (test concentration not listed); actives 0.21% (n = 330,000);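 active = OD600 absorbance below the run mean of sample wells minus 3.6 SD, in any replicate, cut at about 0.56 in these data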;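 also: stock transfer was 300 nL into about 60 µL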
Numbers without * were called inactive; i = inactive; · = no result given; & = joins results of further samples.

Sample of the layout:
SMILES	FGF22 binding	Beta2AR agonist	LANA-H2A inh	UCH37 inh	HNF4A DNA FP	ALR H2O2 inh	Ecoli growth
CCc1ccc(CNCCc2ccc(F)cc2)cc1	i	14.4	-2.2	0.7	-2.6	·	0.645
O=c1[nH]c(=O)n(CCc2ccccc2)c(O)c1/C=N/N1CCOCC1	i	-0.5	0.4	1.2	5.6	29.3	0.678

This part in full, previewed entries included:
SMILES	FGF22 binding	Beta2AR agonist	LANA-H2A inh	UCH37 inh	HNF4A DNA FP	ALR H2O2 inh	Ecoli growth
CCc1ccc(CNCCc2ccc(F)cc2)cc1	i	14.4	-2.2	0.7	-2.6	·	0.645
O=c1[nH]c(=O)n(CCc2ccccc2)c(O)c1/C=N/N1CCOCC1	i	-0.5	0.4	1.2	5.6	29.3	0.678
COc1cc(-n2c(=S)[nH]c3ccc(C)cc3c2=O)c(Cl)cc1Cl	i	-4.6	·	2.4	0.2	·	0.684
COC(=O)C1=C(c2ccc(F)cc2OCc2ccccc2)C[C@@H]2CC[C@H]1N2C(=O)N1CCCC1	i	1.6	-3.3	0.4	-0.8	-2.5	·
COc1cccc(C(=O)C2CCCN(Cc3ccc4nonc4c3)C2)c1 (stereo not given)	i	-5.2	4.2	1.9	-4.7	1.9	0.659
CCCNC(=O)N1[C@H]2CC[C@@H]1C(C(=O)OC)=C(c1ccccc1)C2	i	-7.2	-0.2	0.4	-3.8	-4.3	·
O=C1NC(=O)C2C1C1(Cl)C(Cl)=C(Cl)C2(Cl)C1(Cl)Cl (stereo not given)	i	3.1	·	1.6	2.9	·	0.709
CN(C)CCCN=Cc1c(O)n(CCc2ccc(F)cc2)c(=O)[nH]c1=O	·	-0.3	0.5	0.6	4.4	·	0.718
C=CCn1c(O)c(Cc2ccc(OCC)cc2)c(=O)[nH]c1=O	i	-2.9	0.7	0.5	-2.4	-13.2	0.679
CCCCCCn1c(=O)c(C(=O)Nc2ncccc2O)c(O)c2ccccc21	i	16.8	0.4	-0.8	-11.3	-23.3	0.677
CCOC(=O)C1(c2ccccc2)CCN(CC(=O)Nc2ccc(C)cc2)CC1	i	0.9	3.0	·	6.6	-0.7	·
CCC1CCCCN1P(=O)(c1ccc(C)o1)C(C)(C)C (stereo not given)	i	4.9	-2.4	3.9	-0.1	3.0	0.653
CCS(=O)(=O)NCc1nnc2n1-c1ccc(Br)cc1C(c1ccccc1Cl)=NC2	i	-16.5	2.3	1.9	-0.2	-4.2	0.675
COc1ccccc1CN1CCN(Cc2ccc(Cl)cc2)CC1	i	-5.8	-3.5	1.9	-3.4	-4.7	0.683
CC(C)(C)C(=O)N1Cc2cnnn2-c2ccccc2C1C#N (stereo not given)	i	-8.1	·	·	-1.6	·	·
COC(=O)COc1cc(C)cc2oc(=O)c3c(c12)CCCC3	i	3.6	-6.6	-16.4	1.5	-7.0	0.681
CCOc1cc2c(cc1OCC)-n1cccc1C(c1ccc(OC(F)F)cc1)NC2 (stereo not given)	i	5.5	-1.0	5.7	-1.2	5.6	0.649
Cc1ccc(-c2nc3ccccc3c(=O)n2-c2ccncc2)cc1	·	-23.1	-5.3	2.4	-4.5	-6.6	0.719
CCOC(=O)c1ccc(N=Cc2c(O)n(-c3ccc(OC)cc3)c(=S)[nH]c2=O)cc1	i	8.4	-0.1	6.7	4.4	0.2	0.695
NCCc1c[nH]c2ccccc12	i	4.8	2.2	2.2	7.7	3.3	0.658
O=C1NC(=O)C2(Cc3ccccc3N3CCCC32)C(=O)N1c1cccc(Cl)c1 (stereo not given)	·	5.1	1.0	-9.4	1.9	1.8	0.744
CSc1nc(N2CCN(C)CC2)c2ccccc2n1	i	17.7	3.5	-8.4	5.1	·	0.67
CCOc1ccccc1Oc1coc2cc(OC(=O)N(C)C)ccc2c1=O	i	6.3	-1.9	2.9	-3.0	-2.0	0.64
O=c1[nH]c(=O)n(-c2cccc3ccccc23)c(O)c1/C=N/N1CCCCC1	i	-1.9	1.7	1.4	-0.7	54.1	0.674
CC(=O)N1N=C(c2c(O)n(C)c(=O)n(C)c2=O)CC1c1ccccc1 (stereo not given)	i	-3.5	2.0	2.9	0.0	9.1	0.635
Cc1cccc(C(O)(C(=O)NNC(=O)CN2CCN(C)CC2)c2cccc(C)c2)c1	i	5.5	-1.2	5.9	-0.7	0.9	0.727
Cc1ccccc1-n1c(-c2ccc([N+](=O)[O-])cc2)nc2ccccc2c1=O	i	-1.5	-1.0	1.7	-5.4	-6.3	0.677
CSc1ccc(CN2CCN(Cc3ccccc3Cl)CC2)cc1	i	6.2	-0.6	1.5	2.1	-31.0	0.61
CCOc1ccc(-n2c(-c3cccs3)nc3ccccc3c2=O)cc1	i	-13.9	1.4	-14.6	1.2	11.9	0.654
O=C(Cc1ccccc1)N1CCN(Cc2ccccn2)CC1	·	-1.0	-1.3	-3.9	0.1	-6.4	0.664
CCN(CC)CCCOC(=O)C(OC(C)C)(c1ccccc1)c1ccccc1	·	29.9	-0.6	2.4	6.2	·	0.662
Cc1cc(OCC(=O)OC(C)(C)C)c2c3c(c(=O)oc2c1)CCC3	·	-3.1	0.8	-4.2	0.7	-13.9	0.717
CCOc1ccc(N2C(=O)NC(=O)/C(=C\c3cc(OC)c(OC)cc3[N+](=O)[O-])C2=O)cc1	·	7.2	-3.4	5.2	-12.3	56.0	0.695
COC(=O)C(O)(c1cn(C)c2ccccc12)C(F)(F)F (stereo not given)	·	10.4	0.2	4.0	2.3	-7.7	0.736
Cc1nc2cc(-c3cccc(F)c3)nn2c(C)c1CCC(=O)N1CCC2(CC1)OCCO2	·	-7.4	0.7	-15.8	0.2	-1.4	0.675
CN1CN(c2cccc([N+](=O)[O-])c2)CN=C1N[N+](=O)[O-]	i	1.5	-2.2	0.5	-3.9	-17.1	0.617
CN1CCN(c2cccc3c2C(=O)c2ccccc2C3=O)CC1	i	1.8	·	9.4	-4.9	·	0.631
CC1(C)C(C(=O)NN2C(=O)c3ccccc3C2=O)C1(C)C	·	1.1	3.4	-2.1	-2.1	·	0.694
COc1cc(C2c3cc4c(cc3CC3COC(=O)C32)OCO4)cc(OC)c1OC (stereo not given)	i	20.4	·	0.6	-2.6	·	0.677
CCCCN=C[C@]12CCC(O)CC1(O)CCC1[C@@H]2CC[C@]2(C)[C@H](C3C=CC(=O)O3)CCC12O (stereo not given in full)	i	-7.8	-4.3	1.0	1.1	2.3	0.656
COC(=O)c1cc2c(s1)=NC=NP=2(N1CCOCC1)N1CCOCC1	i	10.4&0.8	-0.9	0.4&-4.5	2.0&-1.3	-9.6	0.686&0.695
O=c1[nH]c(=S)[nH]c(O)c1N=Nc1ccc(SC(F)F)cc1	i	7.0	5.3	8.9	10.7	98.0*	0.735
N#Cc1cc2c(nc1SCC(=O)Nc1cc(Cl)ccc1Cl)C1CCN2CC1	·	12.7	0.2	0.7	3.2	-3.1	0.722
O=c1c2ccccc2nc(Cc2ccccc2)n1-c1ccccc1O	i	-17.9	2.8	1.8	1.7	·	0.694
CN(C)C(=O)O/N=C(\N)COc1ccc(C(C)(C)C)cc1	i	6.0	2.1	·	4.3	-8.3	·

Individual results from the entries so far.
Value for CN(C)C(=O)O/N=C(\N)COc1ccc(C(C)(C)C)cc1 under HNF4A DNA FP: 4.3
Value for CN1CCN(c2cccc3c2C(=O)c2ccccc2C3=O)CC1 under Ecoli growth: 0.631
Value for COC(=O)c1cc2c(s1)=NC=NP=2(N1CCOCC1)N1CCOCC1 under ALR H2O2 inh: -9.6
Value for CC1(C)C(C(=O)NN2C(=O)c3ccccc3C2=O)C1(C)C under LANA-H2A inh: 3.4

Going on with the list.
SMILES	FGF22 binding	Beta2AR agonist	LANA-H2A inh	UCH37 inh	HNF4A DNA FP	ALR H2O2 inh	Ecoli growth
CCCC1COC(Cn2cncn2)(c2ccc(Cl)cc2Cl)O1 (stereo not given)	·	0.6	2.2	3.2	3.0	-4.9	0.688
O=C(Nc1ccc2ccccc2c1)c1nn(C23CC4CC(CC(C4)C2)C3)cc1Br	·	13.8	3.0	1.6	-3.5	2.7	0.749
CCN(CCO)c1ccc(N=Cc2c(O)n(C)c(=S)[nH]c2=O)cc1	i	13.0	-6.6	4.3	2.0	41.4	0.662
Cn1cnnc1Sc1cc(N2CCNCC2)ccc1[N+](=O)[O-]	i	-4.8	-1.5	8.4	2.6	-1.3	0.669
O=C1NC(=O)N(c2ccc(F)cc2)C(=O)/C1=C/c1ccc2c(c1)CCCN2Cc1ccccc1	·	0.6	·	12.2	6.8	·	0.732
COCc1cc(OC(=O)N(C)C)nc2c1c(C)nn2C	i	8.4	-1.9	-16.3	2.8	-3.0	0.65
Cc1ccc(CCN2CC(C(=O)N3CCC4(CC3)OCCO4)CC2=O)cc1 (stereo not given)	·	-0.4	2.0	1.4	2.0	0.5	0.707
CCCCn1c(O)c(/C(CC)=N/N2CCCCC2c2cccnc2)c(=O)[nH]c1=S (stereo not given)	·	13.8	-0.3	5.1	6.7	1.4	0.704
COc1ccc(-c2nc3ccccc3c(=O)n2-c2ccc(OC)cc2)cc1	i	-7.1	3.6	3.6	-2.3	·	0.718
CCN1CCN(Cc2ccc(OC(F)(F)F)cc2)CC1	·	-2.4	0.5	2.5	7.8	5.3	0.725
Cc1ccc2[nH]c3c(c2c1)CN(C(=O)CN1C[C@H]2C[C@@H](C1)c1cccc(=O)n1C2)CC3	i	-1.1	-8.3	0.7	-14.0	20.9	0.708
CCOc1ccc([N+](=O)[O-])cc1CNCCc1ccccc1	i	11.8	0.6	6.1	1.8	-23.8	0.663
c1cc2c(cc1[C@H]1OC[C@H]3[C@@H]1CO[C@H]3c1ccc3c(c1)OCO3)OCO2	i	2.5	·	0.8	1.5	·	·
C=CCn1c(O)c(C(C)=NC2CC2)c(=O)[nH]c1=O	·	1.9	1.2	3.9	-0.9	-4.1	0.703
CCCCN1C(=N)C(CC)(CC)C(=O)NC1=O	i	0.2	-1.3	0.6	-4.5	0.3	0.609
CN1CCC2(CC1)C(C#N)=C(N)NC(S)=C2C#N	i	2.6&-24.1	-6.6&-3.8	1.2&1.2	31.1&8.1	-21.8&-19.1	0.677&0.721
COc1cc(OC)cc(C(=O)NC(=S)N2C[C@H]3C[C@H](C2)c2cccc(=O)n2C3)c1	i	3.0	2.3	2.9	3.3	7.0	0.743
CCC(=NCc1ccco1)c1c(O)n(-c2ccc(Cl)cc2)c(=O)[nH]c1=O	i	5.2	-1.1	3.4	0.6	-5.3	0.67
ClC(Cl)=C(c1ccc(Cl)cc1)c1ccc(Cl)cc1	i	-1.9	-2.0	1.9	-2.3	0.0	0.677
CS(=O)(=O)N1CCCC(C(=O)N2CCC3(CC2)OCCO3)C1 (stereo not given)	i	1.2	2.4	5.1	1.7	-6.6	0.707
COC(=O)C1=C(c2cccc(OC)c2OC)C[C@@H]2CC[C@H]1N2C(=O)N1CCCC1	i	-9.8	3.3	3.2	-0.8	·	·
CCOC(=O)c1ccc(-[n+]2c(-c3ccccc3)cc(-c3ccccc3)cc2-c2ccccc2)cc1	·	18.1	-0.9	2.7	·	-7.4	·
NC(=O)c1cn(C2OC(CO)C(O)C2O)c2ncnc(N)c12 (stereo not given)	i	-4.9&-3.6	-0.2	2.2	-2.4&-4.3	-5.7	0.589
CCCn1cc(CN2CCCC(C(=O)c3cccc(OC)c3)C2)c(C)n1 (stereo not given)	i	-2.0	4.8	5.3	-2.0	-14.1	0.667
Cc1cc(S(=O)(=O)NCc2ccccc2)ccc1OCC(=O)N1CCN(C)CC1	i	-2.0	-0.8	2.1	-1.6	-0.8	0.658
C/C(=N\NC(=O)c1ccncc1)c1c(O)[nH]c(=O)[nH]c1=O	i	·	0.0	-1.9	·	-23.9	0.798
Cc1ccc(-n2c(O)c(C=NCCN3CCNCC3)c(=O)[nH]c2=S)cc1	i	4.5	0.2	8.3	6.6	1.4	0.688
CC(=O)Nc1ccccc1C(=O)OCC(=O)c1ccccc1Cl	·	1.3	0.8	-2.0	0.0	-12.2	0.7
CCN(CC)C(=O)c1ccc(NC(=O)c2c(C)noc2C)cc1	i	2.8	4.3	0.3	-7.9	10.9	0.63
O=C1NC(=O)[C@]2(Cc3ccccc3N3CCN(c4ccccc4)CC32)C(=O)N1c1ccccc1 (stereo not given in full)	·	-12.1	-0.7	-0.6	-14.8	2.6	0.75

A portion of the library. The share of hits here may be higher or lower than overall.
